Bead autofluor – counter-screen for toxin protease inhibitors: compound fluorescence. compound autofluorescence counterscreen, microsphere flow cytometry; hits give high values. fluorescence intensity (test concentration not listed). 360,000 compounds, 3.1% hits. AID 624483;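 active = at least 3 SD above the mean of all compounds, about 16000 in these data; inconclusive = too few beads counted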;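 also: 100 nL of 1 mM stock went into each well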
RN4220 kill – kills Staphylococcus aureus RN4220. S. aureus RN4220 growth, OD600, 16 h. inhibition, % (no concentration beside the values). 330,000 compounds, 0.33% hits;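 active = z-score of -3 or lower and OD600 up to 0.18 on both plates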;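 also: plate controls were untreated cells for no effect and reference antibiotic for full effect; stock transfer was 100 nL into about 80 µL; one replicate is shown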
ugtP null kill – growth inhibition of S. aureus ugtP deletion strain. 330,000 compounds, 0.54% hits. AID 1259309. S. aureus RN4220 ugtP deletion, OD600 growth, 16 h; some inactives read as strong as hits. growth inhibition, % (no concentration beside the values);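 active = z-score under -3 and OD600 up to 0.15 on both plates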;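 also: plate controls were untreated wells for no effect and antibiotic for full effect; wells of about 80 µL received 100 nL stock; the first replicate is given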
Mtb hypoxia rep – Mtb hypoxia fluorescent reporter inhibition. 300,000 compounds, 0.1% hits. fluorescence inhibition, % (no concentration beside the values). M. tuberculosis hypoxia-regulated fluorescent reporter, fluorescence. AID 1159583;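 active = 35 to 45% if threefold the growth effect, above 45% if 1.5-fold the growth effect; inactive = the rest, general growth blockers included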;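 also: wells of about 50 µL received 100 nL stock; 0% = vehicle wells and 100% = reference inhibitor wells; whole bacteria with a GFP reporter of the hypoxia response; strong numbers were not always called active; many hits fall short of the cut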
PrP 5UTR inh – inhibition of PrP 5' UTR reporter expression | inhibition, % (test concentration not listed) | 340,000 compounds, 0.35% hits | cell-based PrP 5' UTR mRNA reporter, plate reader | AID 488862;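 active = every replicate at 50% or more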;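 also: 0 = median of the neutral control wells; tested in H4 reporter cells; numbers are from one replicate; inactives centre near -14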
BJeLR lethal – BJeLR cell viability loss; BJeLR (HRASV12) viability, CellTiter-Glo ATP luminescence, 48 h; reference of the scale not given here; inhibition, % (no concentration beside the values); 300,000 compounds, 0.17% hits;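 active = replicate mean above 50%; inconclusive = above 50% but judged a plate artefact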;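 also: 50 nL library stock added to about 25 µL; numbers are from one replicate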
Mtb hypoxia rep growth – further read-out of Mtb hypoxia rep, marked with its call; growth inhibition, %; measured here: M. tuberculosis growth (absorbance);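 0% = vehicle and 100% = reference antibiotic; read after six days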
An asterisk follows results filed as active; ? = inconclusive; . = no result given.

SMILES | Bead autofluor | RN4220 kill | ugtP null kill | Mtb hypoxia rep | Mtb hypoxia rep growth | PrP 5UTR inh | BJeLR lethal
CN(CC(=O)NC1CC1)S(=O)(=O)c1cc(Cl)ccc1Cl | 5247 | 2.5 | 12 | 10 | 0 | -2 | -2
Cc1ccc(N(CC(=O)NC2CCCCC2)C(=O)CNC(=O)c2ccco2)c(C)c1 | 3709 | 1.7 | 2 | -2 | 1 | -9 | 4
COc1ccccc1C(=O)Nn1cnc2ccccc2c1=O | 9999 | 3.8 | 11 | 3 | 8 | -29 | -3
O=C(Nc1cccc(S(=O)(=O)NC2=NCCC2)c1)c1cc(Cl)ccc1[N+](=O)[O-] | . | 3.3 | 2 | 5 | 5 | -15 | 3
CN(C)CCCNC(=O)/C(=C\c1ccc(-c2cccc([N+](=O)[O-])c2)o1)NC(=O)c1ccccc1 | 1951 | 1.0 | 4 | 0 | 2 | 4 | -4
O=C(COC(=O)CCCNC(=O)c1ccc(Cl)cc1)NC1CC1 | 8413 | 3.3 | 2 | 0 | -5 | -5 | 2
Nc1nc(SCC(=O)Nc2ncc(C(F)(F)F)cc2Cl)n[nH]1 | 4204 | -0.5 | -6 | -10 | 11 | 0 | 1
Fc1ccc(NC(=S)NC2CC3CCCC(C2)N3Cc2cccs2)cc1 (configuration not stated) | 3401 | -2.1 | 1 | 1 | -6 | -20 | 2
C[C@@]12C(=O)Nc3cc(Cl)ccc3C(=O)N1C1c3cc(Cl)ccc3OCC1C2c1ccccc1 (some centres not stated) | . | -8.4 | -4 | 3 | 6 | . | .
COc1ccc(C(=O)COC(=O)COc2cc(C)cc(C)c2)cc1 | 4467 | -1.0 | -6 | 12 | -36 | -1 | 5
CC(C)NC(=O)COC(=O)c1cc(Br)ccc1Cl | 2533 | 2.4 | -2 | 5 | 9 | -13 | 4
CC(C)(C)C1CCC(=NNS(=O)(=O)c2ccc(Br)cc2)CC1 (configuration not stated) | 2657 | 1.8 | 4 | . | . | -25 | -3
CCN(CC)S(=O)(=O)c1cc([N+](=O)[O-])ccc1N=Nc1c(O)[nH]c2ccccc12 | 2507 | 3.7 | -18 | 6 | 2 | 7 | 1
NS(=O)(=O)c1cccc(NC(=O)CCc2ccc(S(=O)(=O)N3CCOCC3)cc2)c1 | 5540 | 3.2 | 12 | 3 | 0 | 0 | .
CCOc1ccc(C(=O)CCC(=O)NC(C)C(=O)OC)cc1 (configuration not stated) | 3321 | 4.2 | 0 | 4 | -13 | 10 | -16
O=C(NCCc1ccc(F)cc1)c1cccc2c1C(=O)c1ccc(N3CCC(Cc4ccccc4)CC3)cc1S2(=O)=O | 8857 | 0.4 | 2 | 0 | 10 | -10 | .
Cc1cnc[nH]1 | 5516 | 6.7 | 9 | 11 | 6 | -3 | .
COc1ccc(-c2c(-c3cc(OC)cc(OC)c3)n(C)c3ccc(-c4ccc5[nH]ccc5c4)cc23)cc1 | 2915 | -5.9 | 14 | 6 | 2 | -14 | .
O=C(CSc1nnc(-c2cccc(S(=O)(=O)N3CCCCC3)c2)o1)NCCC1=CCCCC1 | 3867 | 1.3 | -3 | 4 | 10 | -9 | -7
CCOC(=O)C(=CNc1ccc(S(N)(=O)=O)cc1)C(=O)OCC | 4162 | 2.3 | 6 | 0 | 8 | -40 | -2

Only BJeLR lethal and PrP 5UTR inh, for 2 of the compounds above:
molecule,BJeLR lethal,PrP 5UTR inh
O=C(COC(=O)CCCNC(=O)c1ccc(Cl)cc1)NC1CC1,2,-5
Cc1cnc[nH]1,.,-3

Additional results follow.
SMILES | Bead autofluor | RN4220 kill | ugtP null kill | Mtb hypoxia rep | Mtb hypoxia rep growth | PrP 5UTR inh | BJeLR lethal
O=C(c1ccccc1)N1N=C(c2cccs2)CC1c1ccccc1O (configuration not stated) | 3294 | 0.6 | -12 | -7 | 2 | 11 | 1
CCCCCCC(=O)Nc1ccc(Br)cn1 | 3836 | 1.5 | -5 | 6 | 2 | -53 | 0
COC(=O)C1=C(c2ccc(S(C)(=O)=O)cc2)CC2CCC1N2C(=O)NCCS(C)=O (configuration not stated) | . | 7.0 | -2 | 11 | 9 | . | .
CCc1ccc(NC(=S)N2CCCC2)cc1 | 5619 | -2.2 | 7 | 2 | 5 | -73 | .
O=C(Cc1ccccc1)OCn1nnc2ccccc2c1=O | 10675 | -0.2 | -6 | 11 | 1 | -18 | -7
c1ccc(-c2ccccc2OCCCCN2CCCCC2)cc1 | 3382 | 2.3 | 0 | 14 | 9 | 2 | 0
CCc1nnc(NS(=O)(=O)c2ccc(NC(=O)c3cccc4ccccc34)cc2)s1 | 2594 | 4.3 | -6 | 1 | 9 | -29 | 0
C=CCn1c(SCC(=O)NCc2ccco2)nc2sc(C)c(C)c2c1=O | 10794 | 7.7 | -3 | 9 | 2 | -18 | -1
O=C(NN=C/C=C/c1ccco1)c1cccnc1 | . | -2.2 | -1 | 4 | -4 | . | .
COCCN1C(=O)C(=O)/C(=C(/O)c2cccc(OC)c2)C1c1ccco1 (configuration not stated) | 3831 | 0.3 | 3 | . | . | -13 | 6
Cc1ccc(C2=NN(CC(=O)NCc3ccco3)C(=O)CC2)cc1 | 2565 | 5.7 | 5 | 14 | 7 | -10 | -7
CCCNC(=O)CCc1cc(C(C)(C)C)c(O)c(C(C)(C)C)c1 | 1986 | 7.2 | -2 | -4 | -6 | -11 | -1
CCCCOC(=O)C1=C(C)NC(=O)NC1c1ccccc1 (configuration not stated) | 4075 | 3.4 | -1 | 11 | 12 | -35 | 0
Cc1nnc(SCCn2c(Br)nc3c2c(=O)n(C)c(=O)n3C)s1 | 5889 | 1.2 | 0 | -2 | 0 | -26 | -2
Cc1ccccc1NC(=O)CCC(=O)NN=Cc1cccnc1 | . | 4.3 | 11 | -2 | -6 | . | .
Oc1ccc(C=NN(Cc2ccccc2)c2ccccc2)cc1 | . | 55 | -10 | 9 | -1 | . | .
CCCC(C(=O)NC1CCCC1)N(CC1CCCO1)C(=O)CNS(=O)(=O)c1ccc(F)cc1 (configuration not stated) | 4498 | 4.1 | 8 | 20 | 10 | -1 | -7
CC(C(=O)Nc1ccc2c(c1)OCCO2)N(c1ccccc1)S(C)(=O)=O (configuration not stated) | 4511 | 3.2 | 4 | 5 | 7 | -11 | 20
COC(=O)c1ccc(C2Nc3ccc(C(C)=NNC(=O)C(OC)c4ccccc4)cc3C3C=CCC32)cc1 (configuration not stated) | . | -0.4 | -12 | 2 | 5 | . | .
Clc1ccc(/C=N/c2c(-c3ccc(Cl)cc3)nc3n2CCS3)cc1 | 2568 | . | . | . | . | -12 | -7
COc1ccc(N(CC(=O)Nc2nccs2)S(=O)(=O)c2c(C)nn(C)c2C)cc1 | 4791 | 3.0 | 8 | -2 | -6 | 1 | .
O=C(c1cc(-c2ccc(Cl)cc2)n(-c2cc(Cl)ccc2Cl)n1)N1CCOCC1 | 2529 | 0.8 | 9 | 9 | 5 | 5 | 1
Brc1cccc(CNc2nc3ccccc3n2CCN2CCCCC2)c1 | 3655 | 1.0 | 2 | 10 | 0 | -34 | -3
CCCNCC1COc2ccccc2O1 (configuration not stated) | . | 0.3 | 5 | -8 | -8 | . | 1
O=C(Nc1ccc(N2CCN(C(=O)c3cccs3)CC2)c(Cl)c1)c1cccnc1 | 4353 | 8.7 | 3 | -9 | -2 | 10 | 3
O=C(NCCc1ccc(Cl)cc1)Nc1ccc(Cl)cc1 | 3629 | -4.7 | -18 | -4 | 2 | -12 | 1
COc1ccc(OC)c(NC(=O)C23CC4CC(C2)CC(n2cnc(Br)n2)(C4)C3)c1 | 10810 | 1.7 | 9 | 4 | 1 | -17 | -3
CCOc1nc(NCc2ccco2)nc(Nc2ccc(OC)cc2)n1 | 2954 | 3.2 | -4 | -4 | 6 | -5 | -9
CCC(C)c1ccccc1NC(=O)C(C)NCCN(C)C (configuration not stated) | 4383 | 5.7 | -1 | 8 | 3 | . | 11
Cc1cc(NC(=O)c2c(-c3ccccc3Cl)noc2C)no1 | 11427 | 5.1 | 4 | 4 | 11 | -11 | 1
CN(C)c1ccc(C(=O)C(O)c2ccccc2)cc1 (configuration not stated) | 4094 | 11 | -5 | 8 | 7 | -20 | -2
Cc1cc(C)nc(-n2ncc3c2CC(c2ccccc2)CC3=O)n1 (configuration not stated) | 2632 | 5.0 | 0 | -7 | -3 | -4 | -3
CCOC(=O)N1CCN(C(=O)C2CC(=O)N(c3ccccc3)C2)CC1 (configuration not stated) | 7482 | 2.5 | -2 | 7 | -1 | -14 | 1
CC(NC(=O)c1nc[nH]c1C(=O)NCC(=O)OC(C)(C)C)C(=O)OC(C)(C)C (configuration not stated) | . | 5.0 | 2 | 0 | 2 | . | .
CCCc1[nH]nc2c1C(c1ccncc1)C(C#N)=C(N)O2 (configuration not stated) | 4593 | -0.1 | 4 | . | . | 47 | .
Cc1cnc(C(=O)OCC(=O)N(C)CC(=O)Nc2ccccc2Cl)cn1 | ? | 2.5 | 4 | 8 | 3 | -16 | 12
Cc1ccc(C(=O)OCC(=O)N(CCc2ccccc2)Cc2ccccc2)cc1S(=O)(=O)N1CCOCC1 | 5435 | 1.5 | 5 | -6 | -2 | -4 | -2
COc1cccc(OC)c1OCc1cc(C2C3CCCC=C3C(C#N)=C(N)C2(C#N)C#N)c(C)cc1C (configuration not stated) | 3089 | 1.1 | -10 | . | . | -5 | -1
O=[N+]([O-])c1cccc2c(Cl)ccnc12 | 3403 | -2.9 | -8 | 1 | 6 | -24 | 7
CCCC(=O)NCc1nc2ccccc2n1C | 11512 | 4.9 | 9 | 3 | 6 | -17 | -4

Profiles as entered above. Values in the order: Bead autofluor, RN4220 kill, ugtP null kill, Mtb hypoxia rep, Mtb hypoxia rep growth, PrP 5UTR inh, BJeLR lethal
CCOC(=O)C(=CNc1ccc(S(N)(=O)=O)cc1)C(=O)OCC as listed: 4162, 2.3, 6, 0, 8, -40, -2
CCOc1ccc(C(=O)CCC(=O)NC(C)C(=O)OC)cc1 (configuration not stated) as listed: 3321, 4.2, 0, 4, -13, 10, -16
Clc1ccc(/C=N/c2c(-c3ccc(Cl)cc3)nc3n2CCS3)cc1 as listed: 2568, ., ., ., ., -12, -7
C=CCn1c(SCC(=O)NCc2ccco2)nc2sc(C)c(C)c2c1=O as listed: 10794, 7.7, -3, 9, 2, -18, -1

The results go on:
SMILES | Bead autofluor | RN4220 kill | ugtP null kill | Mtb hypoxia rep | Mtb hypoxia rep growth | PrP 5UTR inh | BJeLR lethal
Cn1c(=O)c2c(nc(NCc3cccnc3)n2Cc2cccc(C(F)(F)F)c2)n(C)c1=O | 2847 | 1.5 | -1 | . | . | -12 | 16
COc1cc(C2C3C(=O)N(c4ccccc4)C(=O)C3ON2c2ccccc2)ccc1O (configuration not stated) | 3692 | 1.4 | 3 | 3 | 0 | -14 | -3
O=C(CCC(=O)Nc1ccc(F)cc1)NN=Cc1ccncc1 | . | 0.0 | 3 | 9 | -1 | . | .
COc1ccc(-c2sc3ccccc3c2C#CCCO)cc1 | 3569 | . | . | . | . | -22 | -6

Screens from PubChem BioAssay.
